TRPV1 agonist = activates the human vanilloid receptor TRPV1. actives 0.19% (n = 320,000). activation, % at 8.33 µM. TRPV1-expressing cells, Fluo-8 calcium influx, agonist mode; in the data active = activation above about 80%; inconclusive = between about 30% and that limit; also: 0% is about no effect
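Cells expressing TRPV1 were dye-loaded with Fluo-8 and read kinetically: 10 s baseline, 3 min after compound (agonist portion), then 2 min after EC20 capsaicin (allosteric enhancer portion). Calcium-bound dye fluorescence at 480/520 nm.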
NPC1 prom act = activators of NPC1 promoter; Huh7 NPC1 promoter luciferase reporter, 24 h; Potency, µM (doses to about 9.22 µM), for the others: at the highest dose activation, usual class: activators; actives 2.4% (n = 320,000); AID 485313;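 also: potency is read from the fitted curve at half-maximal effect; % of control where 0% means no effect; nearly all actives have a fitted effect of over 60% in size; reporter is driven by a mutant NPC1 promoter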
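Huh7 cells stably carrying NPC1 promoter–luciferase, plated in Opti-MEM with 10% FBS for 2 h, were exposed to compound in DMSO for 24 h at 37 °C; luciferase reagent was added for 10 min and luminescence read.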
ELG1 genotox = inducers of genotoxicity in HEK293T ELG1-luciferase cells; HEK293T ELG1-luciferase reporter, luminescence, 16 h; Potency, µM (highest dose often 46 µM), without a hit: at the top dose activity change, positive = activation, hits mostly activators; actives 1.3% (n = 330,000); AID 504466; also: potency is read from the fitted curve at half-maximal effect; % of control where 0% means no effect; nearly all actives have a fitted effect of over 60% in size
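Quantitative HTS format in 1536-well plates. HEK293T ELG1-luciferase reporter cells receive test compound and are incubated 16 hr at 37 °C, 5% CO2; ONE-Glo added, 30 min room temperature, then luminescence read.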
Rab9 prom act = Rab9 promoter activation | Huh7 Rab9 promoter-luciferase reporter, luminescence, 24 h | Potency, µM (series often up to 9.22 µM), without a hit: at the top dose activation, negative = inhibition, actives largely listed as activators | actives 2.8% (n = 320,000) | AID 485297; also: potency is read from the fitted curve at half-maximal effect; % of control where 0% means no effect; nearly all actives have a fitted effect of over 60% in size
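Measured in stably transfected Huh7 cells bearing a Rab9 promoter–luciferase construct: 24 h compound treatment at 37 °C, followed by luminescence detection.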
ELG1 DNA repair = blocks ELG1-dependent DNA repair in HEK293T cells. actives 2.3% (n = 330,000). AID 504467. HEK293T ELG1-luciferase reporter, luminescence, 16 h; DNA damage induced by 5-fluorouridine. Potency, µM (titrated, usually from 46.1 µM), inactives show at the highest dose activity change, negative = inhibition, most hits filed as inhibitors; also: potency is read from the fitted curve at half-maximal effect; % is scaled to controls: 0 for no effect and ±100 for the full control effect; nearly all actives have a fitted effect of over 55% in size
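Luminescence from the luciferase reporter, measured 30 min after ONE-Glo reagent at room temperature, was the read-out. Beforehand, 2,000 cells per well were exposed for 16 hr at 37 °C to 5-fluorouridine together with compound or vehicle.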
BRCA1 expr act = activators of BRCA1 expression; MCF7-BRCA1-FFLuc reporter, luminescence, 48 h; response scale: scaled: vehicle 0%, 10 µM genistein 100%; AID 624202; actives 1.1% (n = 380,000); Potency, µM (doses to about 46.1 µM), inactives show top-dose activation, usual class: activators; also: potency is read from the fitted curve at half-maximal effect; nearly all actives have a fitted effect of over 80% in size; some results filed as inactive show a strong effect at the top dose
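48 h compound treatment of MCF7-BRCA1-FFLuc cells (phenol-red free MEM, 37 °C), then 15 min with luciferase substrate and luminescence imaging.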
p53 reactivator = restores transcriptional activity of mutant p53 | Potency, µM (series often up to 92.2 µM), for the others: at the highest dose activity change, positive = activation, usual class: activators | actives 0.063% (n = 320,000) | H1299 p53-A138V BP100-luciferase reporter, luminescence, 24 h; also: potency is read from the fitted curve at half-maximal effect; % of control where 0% means no effect; nearly all actives have a fitted effect of over 45% in size
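H1299 (p53-null), stable ts p53-A138V + BP100-Luc; 1000 cells/well, Opti-MEM/10% FBS; cpd 4 pt, 1:5; 24 h, 37 deg C, 5% CO2; detection reagent 10 min RT; luminescence.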
FLuc modulator = firefly luciferase modulation, counter-screen for miR-21 project. actives 6.9% (n = 360,000). AID 588342. purified FLuc, Km substrates, luminescence inhibition. Potency, µM (titrated, usually from 57.5 µM), without a hit: at the highest dose activity change, negative = inhibition, usual class: inhibitors;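 also: potency is read from the fitted curve at half-maximal effect; plate controls were vehicle for no effect and reference inhibitor for full effect; nearly all actives have a fitted effect of over 55% in size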
Target sequence (P08659 whole entry, looked up): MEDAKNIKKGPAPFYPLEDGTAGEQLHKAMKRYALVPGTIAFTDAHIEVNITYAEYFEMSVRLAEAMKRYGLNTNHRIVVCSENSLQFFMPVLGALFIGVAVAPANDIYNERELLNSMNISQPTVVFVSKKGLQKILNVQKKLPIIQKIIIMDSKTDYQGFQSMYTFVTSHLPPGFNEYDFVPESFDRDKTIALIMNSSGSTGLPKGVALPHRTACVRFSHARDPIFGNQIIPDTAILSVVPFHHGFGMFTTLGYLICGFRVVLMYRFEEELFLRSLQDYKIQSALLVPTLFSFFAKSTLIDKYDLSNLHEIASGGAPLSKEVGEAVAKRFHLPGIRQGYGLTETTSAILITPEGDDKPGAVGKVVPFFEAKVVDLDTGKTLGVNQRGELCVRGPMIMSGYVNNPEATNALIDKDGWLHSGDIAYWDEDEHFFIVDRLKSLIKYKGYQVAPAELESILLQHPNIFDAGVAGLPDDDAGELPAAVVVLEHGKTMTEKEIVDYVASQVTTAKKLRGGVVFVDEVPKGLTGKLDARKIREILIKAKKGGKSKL
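Purified P. pyralis luciferase (10nM final) with 10uM D-luciferin and 10uM ATP (Km levels) in 50mM Tris acetate pH 7.5, 10mM Mg acetate, 0.01% Tween-20, 0.05% BSA; qHTS 6-point titration, ~60 µM downward; luminescence read.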
Gal4-VP16 FLuc = inhibits Gal4-VP16 luciferase reporter, ROR gamma counter-screen. Potency, µM (top dose mostly 53.6 µM), for the others: top-dose activity, negative = inhibition, usual class: inhibitors. Drosophila S2 Gal4-VP16 UAS-luciferase, luminescence, 20 h. AID 2546. actives 3.5% (n = 310,000);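 also: Gal4-VP16 expression switched on by copper sulfate through the metallothionein promoter; potency is read from the fitted curve at half-maximal effect; % is scaled to controls: 0 for no effect and ±100 for the full control effect; nearly all actives have a fitted effect of over 50% in size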
Tb PFK inh = T. brucei PFK enzyme inhibition | O15648 | T. brucei PFK, ADP-Glo luminescence | Potency, µM (series often up to 57.5 µM), for the others: at the top dose activity, negative = inhibition, most hits filed as inhibitors | actives 0.17% (n = 330,000);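 also: potency is read from the fitted curve at half-maximal effect; 0% = uninhibited 1x PFK enzyme wells and -100% = no-enzyme wells; nearly all actives have a fitted effect of over 60% in size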
Target sequence (O15648 whole entry, looked up): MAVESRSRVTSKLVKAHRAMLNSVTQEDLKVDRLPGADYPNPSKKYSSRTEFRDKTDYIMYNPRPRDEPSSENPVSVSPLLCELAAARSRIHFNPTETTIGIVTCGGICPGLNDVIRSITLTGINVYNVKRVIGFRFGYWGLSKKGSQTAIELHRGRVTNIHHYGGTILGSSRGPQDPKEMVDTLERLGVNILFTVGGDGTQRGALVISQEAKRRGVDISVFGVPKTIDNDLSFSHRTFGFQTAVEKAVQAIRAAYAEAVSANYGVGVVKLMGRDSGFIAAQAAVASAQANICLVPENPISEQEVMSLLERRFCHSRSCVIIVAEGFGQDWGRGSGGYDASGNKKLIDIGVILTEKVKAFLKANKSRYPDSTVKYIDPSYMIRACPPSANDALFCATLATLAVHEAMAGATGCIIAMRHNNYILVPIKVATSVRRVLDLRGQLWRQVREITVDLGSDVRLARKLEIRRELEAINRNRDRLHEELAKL
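PFK 1.25 nM, F6P 0.5 mM, ATP 0.1 mM, 0.1 M TEA pH 8.0, 5 mM MgCl2, 0.01% Tween20, 0.1% BSA; 45 min RT. ADP-Glo readout. qHTS titration up to 57 uM; curves fitted, compounds curve-classed.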
* = called active by the depositor; ? = inconclusive; . = not tested or not shown; & = joins results of further samples; [ ] = dose if it differs, or a comment. Unless noted, calls follow the shape of the dose curve; as a rule, active = well fitted curve in the direction sought with a large enough effect; inconclusive = small, poorly fitted or top-dose-only effect, or another doubt; inactive = no such curve, though single readings can be large; an effect the other way counts as inactive or inconclusive. An excerpt; count on the stated rates, not on these rows.

Letters: A = TRPV1 agonist; B = NPC1 prom act; C = ELG1 genotox; D = Rab9 prom act; E = ELG1 DNA repair; F = BRCA1 expr act; G = p53 reactivator; H = FLuc modulator; I = Gal4-VP16 FLuc; J = Tb PFK inh
1) COc1cc(CN(C)CCc2ccccn2)cc(OC)c1OC
  A: 3.5; B: -2.9%; C: -2.2%; D: 7.6%; E: 6.5%; F: -14.6%; G: -4.0%; H: 4.2%; I: -3.9%; J: -2.1%

2) COc1ccc(CCNC(=O)CN2CCC(C)CC2)cc1OC
  A: 0.4; B: 8.0%; C: -2.5%; D: 0.8%; E: -28.2%; F: 44.4%; G: 6.0%; H: 8.6%; I: -22.6%; J: -14.5%

3) CN(C)CCCOc1ccc(C(C)(C)c2ccccc2)cc1
  A: 0.8; B: 0.1%; C: -2.0%; D: 1.1%; E: -3.5%; F: -11.7%; G: 3.3%; H: -0.2%; I: 9.4%; J: -5.7%

4) O=S(=O)(c1ccc(F)cc1)N1CCN(CC2CC3C=CC2C3)CC1 (stereo not drawn)
  A: 2.0; B: -5.4%; C: -7.4%; D: -3.2%; E: -3.0%; F: -12.9%; G: 5.6%; H: -0.1%; I: -4.7%; J: 2.9%

5) Cc1ccc2c(c1)S/C(=C\c1cccc[n+]1C)N2CCO
  A: 2.6; B: -17.9%; C: -6.2%; D: -22.5%; E: ?; F: -32.6%; G: ?; H: -5.8%; I: 0.4%; J: -0.2%

6) O=C(Nc1ccccc1)N1CCN(Cc2ccccc2)CC1
  A: ?; B: 19.7%; C: 4.9%; D: 25.1%; E: ?; F: ?; G: 10.6%; H: ?; I: 6.0%; J: -4.7%

7) CC(=O)Nc1ccc(S(=O)(=O)N2CCN(Cc3cccs3)CC2)cc1
  A: -2.9; B: -6.4%; C: -8.1%; D: -8.5%; E: ?; F: -18.1%; G: -0.5%; H: -8.8%; I: 14.4%; J: -5.2%

8) Cc1ccc(C)c(OCCCNC2CCCC2)c1C
  A: -5.1; B: -2.3%; C: -16.2%; D: -12.8%; E: 5.5%; F: -36.9%; G: -1.7%; H: 3.2%; I: 16.3%; J: ?

9) CC[n+]1c(/C=C2\C=C(C)CC(C)(C)C2)sc2ccccc21
  A: 18.8; B: -33.4%[inhibitor]; C: -0.7%; D: -25.0%; E: 9.0%; F: -76.3%; G: -15.2%; H: -10.9%; I: -23.5%; J: 7.0%

10) Cc1[nH]c2ccccc2c1/C=C/c1cc[n+](C)cc1
  A: 2.6; B: -36.0%[inhibitor]; C: -22.0%; D: -43.3%[inhibitor]; E: -4.3%; F: -61.4%; G: -0.7%; H: 2.2%; I: -27.3%; J: -2.3%

11) Cc1cc2nc(C3CCN(C(=S)NCC(C)C)CC3)[nH]c2cc1C
  A: 1.2; B: 0.2%; C: 3.3%; D: -0.9%; E: -9.7%; F: 1.3%; G: -13.4%; H: 16.9µM*; I: 1.4%; J: -5.7%

12) COc1ccc(CC(C)NCC(O)c2ccc(O)c(NC=O)c2)cc1 (stereo not drawn)
  A: .; B: .; C: .; D: .; E: .; F: 0.3%&4.8%; G: .; H: .; I: 0.6%; J: .

13) C[n+]1ccc(/C=C/c2c[nH]c3ccc(F)cc23)cc1
  A: -5.8; B: -46.2%[inhibitor]; C: -6.5%; D: -43.0%[inhibitor]; E: ?; F: -0.7%; G: 3.3%; H: 0.6%; I: -23.3%; J: -27.6%

14) O=C(O[C@H]1CN2CCC1CC2)N1CCc2ccccc2[C@@H]1c1ccccc1
  A: .; B: .; C: .; D: .; E: .; F: .; G: .; H: .; I: 6.6%; J: .

15) CCOc1ccc(OCC(O)CNC2CCN(Cc3ccccc3)CC2)cc1 (stereo not drawn)
  A: 0.8; B: -2.7%; C: 0.3%; D: -2.8%; E: -5.0%; F: -69.5%; G: -7.0%; H: 0.2%; I: -10.7%; J: -7.0%

16) CC(C)(C)NC[C@H](O)c1ccc(O)c(CO)c1
  A: .; B: .; C: .; D: .; E: .; F: .; G: .; H: .; I: 3.9%; J: .

17) COc1cc(CNCc2ccc(OC)cc2OC)cc(OC)c1
  A: 1.0; B: -3.8%; C: -9.2%; D: -6.2%; E: 10.4%; F: 3.4%; G: -3.2%; H: -5.9%; I: 11.2%; J: -5.0%

18) CCOC(=O)N1CCC(N2CCN(S(=O)(=O)c3ccc([N+](=O)[O-])cc3)CC2)CC1
  A: 0.0; B: -5.9%; C: -4.9%; D: -2.2%; E: ?; F: -1.3%; G: 2.2%; H: -1.2%; I: -3.4%; J: 1.6%

19) CCN1/C(=C/C(C)=C/c2sc3ccccc3[n+]2CC)Sc2ccccc21
  A: 1.3; B: -44.8%[inhibitor]; C: -15.4%; D: -35.9%[inhibitor]; E: 1.83µM*; F: -79.7%&-46.4%[inhibitor]; G: 6.7%; H: ?; I: -88.8%; J: -5.1%

20) CCN(Cc1ccccc1)Cc1ccc(OCc2ccccc2)cc1
  A: 1.8; B: 0.0%; C: -3.9%; D: 0.9%; E: 3.0%; F: 52.5%; G: 21.0%; H: -14.3%; I: -4.9%; J: 0.0%

21) CCOc1ccc(CN(C)CC(=O)Nc2cccc(S(=O)(=O)N(C)c3ccccc3)c2)cc1
  A: 24.3; B: -4.2%; C: -14.0%; D: 2.5%; E: ?; F: -34.5%; G: -2.9%; H: 0.1%; I: 2.0%; J: -3.6%

22) COc1cc(CNc2ncc(-c3ccc(Cl)cc3)n2C)cc(OC)c1OC
  A: -4.8; B: -3.3%; C: -0.2%; D: -10.5%; E: -25.8%; F: -11.8%; G: .; H: 1.6%; I: 9.1%; J: 1.8%

23) Nc1ncnc2nc(-c3ccc(N4CCOCC4)nc3)cc(-c3cccc(Br)c3)c12
  A: .; B: -3.5%[46.1 µM]; C: .; D: -8.3%[46.1 µM]; E: .; F: .; G: .; H: .; I: -28.3%; J: .

24) Clc1cccc(Cl)c1OCCOCCNCc1ccccc1
  A: -0.2; B: -0.5%; C: -6.4%; D: -4.0%; E: -5.9%; F: -28.9%; G: 4.8%; H: 1.2%; I: -8.4%; J: -10.4%

25) Cn1c(-c2cccc([N+](=O)[O-])c2)cnc1NCc1ccc(C#N)cc1
  A: 1.2; B: -1.4%; C: -15.3%; D: -5.5%; E: -12.5%; F: -8.1%; G: -1.1%; H: -2.1%; I: 1.4%; J: 0.0%

26) CC(C)(C)c1ccc(OCCNCc2ccccc2)cc1
  A: ?; B: 8.7%; C: -0.4%; D: -1.9%; E: -1.7%; F: -31.0%; G: .; H: -13.7%; I: -5.1%; J: 0.7%

27) COCCCNCCCCOc1c(Cl)cc(C)cc1Br
  A: 6.8; B: -3.4%; C: 2.6%; D: -25.1%; E: -10.8%; F: -32.9%; G: -11.6%; H: 5.9%; I: -0.3%; J: 4.0%

28) C=CCC(NCc1ccccc1)c1ccc(OC)cc1 (stereo not drawn)
  A: -5.1; B: 1.4%; C: -8.1%; D: 0.2%; E: -5.8%; F: -13.6%; G: 2.6%; H: 1.4%; I: -1.9%; J: 0.0%

Laid out differently: results already given
16: CC(C)(C)NC[C@H](O)c1ccc(O)c(CO)c1
  TRPV1 agonist = . | NPC1 prom act = . | ELG1 genotox = . | Rab9 prom act = . | ELG1 DNA repair = . | BRCA1 expr act = . | p53 reactivator = . | FLuc modulator = . | Gal4-VP16 FLuc = 3.9% | Tb PFK inh = .
17: COc1cc(CNCc2ccc(OC)cc2OC)cc(OC)c1
  TRPV1 agonist = 1.0 | NPC1 prom act = -3.8% | ELG1 genotox = -9.2% | Rab9 prom act = -6.2% | ELG1 DNA repair = 10.4% | BRCA1 expr act = 3.4% | p53 reactivator = -3.2% | FLuc modulator = -5.9% | Gal4-VP16 FLuc = 11.2% | Tb PFK inh = -5.0%

Some of the entries so far, with tabs:
item	Compound	TRPV1 agonist	NPC1 prom act	ELG1 genotox	Rab9 prom act	ELG1 DNA repair	BRCA1 expr act	p53 reactivator	FLuc modulator	Gal4-VP16 FLuc	Tb PFK inh
26	CC(C)(C)c1ccc(OCCNCc2ccccc2)cc1	?	8.7%	-0.4%	-1.9%	-1.7%	-31.0%	.	-13.7%	-5.1%	0.7%
3	CN(C)CCCOc1ccc(C(C)(C)c2ccccc2)cc1	0.8	0.1%	-2.0%	1.1%	-3.5%	-11.7%	3.3%	-0.2%	9.4%	-5.7%
11	Cc1cc2nc(C3CCN(C(=S)NCC(C)C)CC3)[nH]c2cc1C	1.2	0.2%	3.3%	-0.9%	-9.7%	1.3%	-13.4%	16.9µM*	1.4%	-5.7%
12	COc1ccc(CC(C)NCC(O)c2ccc(O)c(NC=O)c2)cc1 (stereo not drawn)	.	.	.	.	.	0.3%&4.8%	.	.	0.6%	.
14	O=C(O[C@H]1CN2CCC1CC2)N1CCc2ccccc2[C@@H]1c1ccccc1	.	.	.	.	.	.	.	.	6.6%	.

Assay outcomes from PubChem.
